ugtP null kill: growth inhibition of S. aureus ugtP deletion strain. growth inhibition, % (test concentration not listed). S. aureus RN4220 ugtP deletion, OD600 growth, 16 h; some inactives read as strong as hits. AID 1259309. 330,000 compounds, 0.54% hits;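 active = z-score under -3 and OD600 up to 0.15 on both plates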;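 note: plate controls were untreated wells for no effect and antibiotic for full effect; wells of about 80 µL received 100 nL stock; the first replicate is given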
BJeLR viability: BJeLR cell viability loss | 300,000 compounds, 0.17% hits | BJeLR (HRASV12) viability, CellTiter-Glo ATP luminescence, 48 h; reference of the scale not given here | inhibition, % (concentration not given with the values) | AID 1554;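 active = replicate mean above 50%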;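 note: 50 nL library stock added to about 25 µL; numbers are from one replicate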
PrP UTR inh: inhibition of PrP 5' UTR reporter expression; cell-based PrP 5' UTR mRNA reporter, plate reader; inhibition, % (test concentration not listed); 340,000 compounds, 0.35% hits; AID 488862;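 active = every replicate at 50% or more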;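 note: 0 = median of the neutral control wells; tested in H4 reporter cells; numbers are from one replicate; inactives centre near -14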
Sa RN4220 lethal: S. aureus RN4220 growth inhibition; inhibition, % (test concentration not listed); AID 1259311; 330,000 compounds, 0.33% hits; OD600, 16 h;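 active = z-score of -3 or lower and OD600 up to 0.18 on both plates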;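 note: plate controls were untreated cells for no effect and reference antibiotic for full effect; stock transfer was 100 nL into about 80 µL; one replicate is shown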
Bead autofluor: compound fluorescence in toxin protease inhibitor counterscreen. compound autofluorescence counterscreen, microsphere flow cytometry; hits give high values. fluorescence intensity (test concentration not listed). 360,000 compounds, 3.1% hits;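 active = at least 3 SD above the mean of all compounds, about 16000 in these data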;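 note: 100 nL of 1 mM stock went into each well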
Mtb hypoxia rep: reduces hypoxia-regulated biosensor signal in M. tuberculosis; M. tuberculosis hypoxia-regulated fluorescent reporter, fluorescence; fluorescence inhibition, % (concentration not given with the values); 300,000 compounds, 0.1% hits; AID 1159583;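 active = 35 to 45% if threefold the growth effect, above 45% if 1.5-fold the growth effect; inactive = the rest, general growth blockers included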;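 note: wells of about 50 µL received 100 nL stock; 0% = vehicle wells and 100% = reference inhibitor wells; whole bacteria with a GFP reporter of the hypoxia response; strong numbers were not always called active; many hits fall short of the cut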
Mtb hypoxia rep growth: also measured in Mtb hypoxia rep; calls as there; growth inhibition, %; measured here: M. tuberculosis growth (absorbance);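 0% = vehicle and 100% = reference antibiotic; read after six days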
* marks the source's active call; other numbers are inactive results; · = no result given.

1: Clc1cnc(N/N=C/c2ccco2)c(Cl)c1
2: O=C(NCc1ccccc1)N1CCN(c2ccc(Cl)c(Cl)c2)CC1
3: CCCC(C)C(=O)Nc1nc(C)c(-c2csc(Nc3cc(Cl)ccc3C)n2)s1 (configuration not stated)
4: O=C(Nc1cc(C(=O)N2CCOCC2)cc(C(=O)N2CCOCC2)c1)c1cc(F)c(F)cc1Cl
5: COc1ccc(-c2cc(=O)[nH][nH]2)cc1OC
6: CCN(C(=O)CSc1nnc(-c2cccs2)o1)C1CCS(=O)(=O)C1 (configuration not stated)
7: COc1ccc(OC)c(C2C3=C(N=c4s/c(=C\c5cccc(O)c5)c(=O)n42)c2ccccc2CC3)c1 (configuration not stated)
8: COc1cccc(CNC(=O)c2ccc(CS(=O)Cc3ccc(C)cc3)o2)c1 (configuration not stated)

screen / no.,1,2,3,4,5,6,7,8
ugtP null kill,·,-11,0,6,-1,1,·,3
BJeLR viability,5,-3,12,5,-10,2,1,-1
PrP UTR inh,-50,-12,-23,-12,-30,-13,3,-12
Sa RN4220 lethal,·,0.8,-0.8,7.4,4.8,0.4,·,2.4
Bead autofluor,2487,2505,2985,11128,11427,4088,1818,4223
Mtb hypoxia rep,·,5,9,8,10,-4,·,7
Mtb hypoxia rep growth,·,6,2,0,5,0,·,0

Filtered by structure, those above with two or more sulfur atoms
3: CCCC(C)C(=O)Nc1nc(C)c(-c2csc(Nc3cc(Cl)ccc3C)n2)s1 (configuration not stated)
6: CCN(C(=O)CSc1nnc(-c2cccs2)o1)C1CCS(=O)(=O)C1 (configuration not stated)

screen / no.,3,6
ugtP null kill,0,1
BJeLR viability,12,2
PrP UTR inh,-23,-13
Sa RN4220 lethal,-0.8,0.4
Bead autofluor,2985,4088
Mtb hypoxia rep,9,-4
Mtb hypoxia rep growth,2,0

(cont.)
9: COc1ccc(NC(=O)CCCn2c(=O)c3sccc3n(Cc3ccc(C)cc3C)c2=O)cc1
10: CC(=O)N/C(=N/c1nc(C)cc(C)n1)Nc1cc(C)cc(C)c1
11: CCOC(=O)c1c(NC(=O)CSc2nnc(CNc3ccc(OC)cc3)n2C)sc(C)c1C
12: Cc1nc([N+](=O)[O-])cn1CC(=O)Nc1ccc([N+](=O)[O-])cc1
13: CN1CCN(c2cc([N+](=O)[O-])ccc2Cl)CC1
14: C=CCn1c(C)cc(/C([O-])=C(/C(=S)Nc2ccc(OC(F)F)cc2)[n+]2ccc(N(C)C)cc2)c1C
15: COc1cc(OC)c(OC)cc1C=NNC(=S)NCC1CCCO1 (configuration not stated)
16: CN1CCN(C(=O)/C(=C/c2cccs2)NC(=O)c2cccs2)CC1

screen / no.,9,10,11,12,13,14,15,16
ugtP null kill,-1,-8,12,8,9,1,1,5
BJeLR viability,-5,-4,-3,0,2,11,·,7
PrP UTR inh,-30,-11,-34,-9,-9,-17,·,-15
Sa RN4220 lethal,0.3,1.5,-4.0,5.0,1.4,-2.2,-0.4,2.9
Bead autofluor,10793,4227,9671,4085,2497,4922,·,2101
Mtb hypoxia rep,-2,7,9,10,5,-9,-2,8
Mtb hypoxia rep growth,7,-5,11,5,3,7,2,12

17: COc1cc2c(cc1CN1CCN(C(=O)c3cc(OC)c(OC)c(OC)c3)CC1)OCO2
18: COc1ccc(Cl)cc1NC(=S)NNC(=O)c1cccnc1
19: COC(=O)[C@]1(C)N[C@H](CN(C)C(=O)Nc2ccccc2)[C@@H]2C(=O)N(Cc3ccccc3)C(=O)[C@@H]21
20: CC1(C)OC(=O)C(=Cc2ccc(-c3ccc(Cl)c(C(=O)O)c3)o2)C(=O)O1
21: COC(=O)c1ccc(C(=O)OC)c(NC(=O)COC(=O)CCOc2ccc(C)cc2)c1
22: Cc1ccc(COC(=O)CN2C(=O)NC3(CCCCC3C)C2=O)cc1 (configuration not stated)
23: Cn1cc(/C=C/C(=O)N2CCCC(C(=O)c3ccc(C(F)(F)F)cc3)C2)cn1 (configuration not stated)
24: COc1ccc2c(c1)O[C@@]1(CCCC[C@@H]1C)CC2=O

screen / no.,17,18,19,20,21,22,23,24
ugtP null kill,-3,-2,-2,3,0,-1,9,-9
BJeLR viability,-4,7,·,5,0,·,1,10
PrP UTR inh,-106,-7,11,-7,-9,2,-22,-29
Sa RN4220 lethal,-0.6,0.7,1.5,1.9,2.4,-0.5,3.9,-13
Bead autofluor,3972,4183,2994,2589,4420,6805,2135,3829
Mtb hypoxia rep,-2,13,-11,-5,5,-5,15,9
Mtb hypoxia rep growth,14,3,-8,2,-5,1,8,8

25: COc1ccc(CN2CCN(C(=O)c3ccccc3C(=O)c3ccccc3)CC2)cc1OC
26: COc1ccc(CC(=O)N2CCC3(CC2)NCCc2[nH]cnc23)cc1
27: Cn1cccc1Cc1nnc(SCC(=O)Nc2ccccc2F)n1-c1ccc(F)cc1
28: O=C(OCc1nc2ccc(Cl)cc2n1CCO)c1ccccc1C(=O)c1ccccc1
29: O=C(Nc1ccccc1OC(F)F)c1ccc(F)cc1
30: CC(=O)NNc1ncnc2ccccc12
31: CCOC(=O)C1CCN(C(=O)CN(c2cccc(C(F)(F)F)c2)S(C)(=O)=O)CC1
32: CCOC(=O)C1=C(C)N=C2c3ccccc3C(=O)C2C1c1ccc(C)cc1 (configuration not stated)

screen / no.,25,26,27,28,29,30,31,32
ugtP null kill,6,9,3,-5,-2,-1,15,2
BJeLR viability,·,6,9,1,-3,-3,6,-4
PrP UTR inh,-19,-26,6,-3,-12,-9,-10,-14
Sa RN4220 lethal,4.6,5.2,3.4,-1.0,-3.3,1.6,3.8,2.4
Bead autofluor,4401,6017,4134,2550,3552,2680,3723,3325
Mtb hypoxia rep,0,3,·,-5,-10,9,·,·
Mtb hypoxia rep growth,3,3,·,1,2,-6,·,·

33: CC(CN1C(C)CCCC1C)OC(=O)c1ccccc1F (configuration not stated)
34: COc1ccc(CC(=O)Nc2ccc(N3CCCC3)c(C)c2)cc1
35: O=C(COc1cccnc1[N+](=O)[O-])Nc1ccc(N2CCOCC2)cc1
36: Cc1ccc(CNC(=O)C2(C(F)(F)F)C/C(=C\Cc3ccccc3)CCCO2)o1 (configuration not stated)
37: Nn1c(SCC(=O)Nc2ccccc2F)nnc1-c1cccnc1
38: CCOC(O)[C@H]1N[C@@H](c2ccc(Cl)cc2)[C@@H]([N+](=O)[O-])[C@@H]1c1ccccc1 (some centres not stated)
39: O=C(c1ccc(S(=O)(=O)N2CCCCC2)cc1)N1CCc2ccccc2C1
40: CN(C)/C=N/C(=S)Nc1ccc(Cl)cc1

screen / no.,33,34,35,36,37,38,39,40
ugtP null kill,16,2,-1,·,-14,0,4,·
BJeLR viability,4,-5,3,-3,8,10,-19,-10
PrP UTR inh,-17,-11,-23,-26,-22,-29,-2,-23
Sa RN4220 lethal,4.5,-5.9,4.2,·,9.2,7.5,18,·
Bead autofluor,3150,6473,2632,3762,13700,2599,3277,3911
Mtb hypoxia rep,-2,3,0,·,4,12,5,·
Mtb hypoxia rep growth,-6,-1,1,·,10,7,8,·

A different layout for some results above.
Screens in order: ugtP null kill, BJeLR viability, PrP UTR inh, Sa RN4220 lethal, Bead autofluor, Mtb hypoxia rep, Mtb hypoxia rep growth
15: COc1cc(OC)c(OC)cc1C=NNC(=S)NCC1CCCO1 (configuration not stated)
→ 1, ·, ·, -0.4, ·, -2, 2
24: COc1ccc2c(c1)O[C@@]1(CCCC[C@@H]1C)CC2=O
→ -9, 10, -29, -13, 3829, 9, 8

The list goes on.
41: CCS(=O)(=O)c1nc(S(=O)(=O)c2ccc(Cl)cc2)c(N2CCN(C)CC2)s1
42: O=C(COC(=O)C1CC1)Nc1ccc(Oc2ccccc2)cc1
43: Cc1c(C(=O)c2ccc(Br)cc2)c(=O)n(C)c(=O)n1C
44: COc1ccccc1NC(=O)Cc1coc2cc(C)ccc12
45: O=C(Nc1cccc(C(F)(F)F)c1)C12CC3CC(CC(C3)C1)C2
46: CCOC(=O)C1=CN(Cc2ccc(Br)cc2)S(=O)(=O)NC1C (configuration not stated)
47: COc1ccc(C(=O)CCNc2ccc(C)c(Cl)c2)cc1
48: Cc1ccc(NC(=O)Cc2ccsc2)cc1Cl

screen / no.,41,42,43,44,45,46,47,48
ugtP null kill,12,3,-5,3,-21,0,3,-1
BJeLR viability,0,-3,-2,0,5,·,-16,7
PrP UTR inh,5,-15,7,-19,-21,-6,-4,·
Sa RN4220 lethal,3.5,-6.7,-3.7,6.2,-0.7,1.6,2.2,0.6
Bead autofluor,5413,2779,·,9456,13065,3481,2565,3835
Mtb hypoxia rep,-3,17,-7,-1,11,-4,19,-1
Mtb hypoxia rep growth,-4,17,4,-7,27,-1,12,-2

Ordered by length of the SMILES (low to high): part of the list above.
48: Cc1ccc(NC(=O)Cc2ccsc2)cc1Cl
44: COc1ccccc1NC(=O)Cc1coc2cc(C)ccc12
42: O=C(COC(=O)C1CC1)Nc1ccc(Oc2ccccc2)cc1

screen / no.,48,44,42
ugtP null kill,-1,3,3
BJeLR viability,7,0,-3
PrP UTR inh,·,-19,-15
Sa RN4220 lethal,0.6,6.2,-6.7
Bead autofluor,3835,9456,2779
Mtb hypoxia rep,-1,-1,17
Mtb hypoxia rep growth,-2,-7,17

(cont.)
49: COc1ccc(Cc2nnc(SC(C)C(=O)Nc3ccc(C(N)=O)cc3)o2)cc1 (configuration not stated)
50: CCOc1nc(Nc2ccccc2F)nc(OCC)n1
51: CN(C)S(=O)(=O)c1cccc(NC(=O)Cn2cc(C(F)(F)F)cc(Cl)c2=O)c1
52: C/C(C=NNC(=O)c1ccc2nc[nH]c2c1)=C/c1ccccc1
53: Cc1[nH]n(C(N)=S)c(=O)c1N=Nc1ccc(S(=O)(=O)N2CCCC2)cc1
54: O=C(c1cccs1)N1CCCC(c2nc3c(nnn3Cc3cccc(Cl)c3)c(=O)[nH]2)C1 (configuration not stated)
55: N#CCC(=O)Nc1ccc(C(=O)OCC(=O)NC2CCCCCC2)cc1
56: COc1ccccc1C1C(C#N)=C(N)N(N(C)C)C2=C1C(=O)CC(C)(C)C2 (configuration not stated)

screen / no.,49,50,51,52,53,54,55,56
ugtP null kill,3,0,-10,3,7,4,-3,7
BJeLR viability,10,-2,1,·,-1,-7,·,-8
PrP UTR inh,-11,-9,-3,·,-16,-15,-2,-26
Sa RN4220 lethal,0.9,1.6,-3.7,1.4,3.9,0.3,-0.3,-1.1
Bead autofluor,·,·,4333,·,5103,3593,3852,2985
Mtb hypoxia rep,3,8,-21,16,·,2,-11,6
Mtb hypoxia rep growth,3,-4,-8,2,·,12,7,5

57: O=C(N/C(=C/c1ccc(Cl)cc1)C(=O)N1CCOCC1)c1ccccc1
58: CCOC(=O)c1sc(NC(=O)C(CC)OC(=O)c2ccco2)nc1C (configuration not stated)
59: O=C(NN=Cc1ccc(OCc2ccccc2)cc1)c1ccncc1
60: CN(C)/N=C/c1ccc(/C=N/NC(N)=S)o1
61: O=C(CNc1ccccc1)Nc1ccc(F)cc1
62: CCOC(=O)c1cc(C)sc1/N=C/C1C(=O)CC(C)(C)CC1=O
63: O=C(NCc1ccccn1)c1c(-c2ccccc2)sc2ccccc12
64: Cc1ccc(N(CC(=O)NC(C)(C)C)C(=O)CNC(=O)c2cccs2)cc1C

screen / no.,57,58,59,60,61,62,63,64
ugtP null kill,0,3,4,·,-3,·,13,-4
BJeLR viability,7,-4,·,3,-4,-9,·,-4
PrP UTR inh,-2,-22,·,-9,-69,-20,-21,-9
Sa RN4220 lethal,3.3,-2.0,6.1,·,-0.9,·,9.3,3.0
Bead autofluor,4065,6258,·,3891,9607,6879,4011,3579
Mtb hypoxia rep,-3,-13,36*,·,3,·,-2,-2
Mtb hypoxia rep growth,0,9,13*,·,7,·,-1,-2

Bioassay records as filed in PubChem BioAssay.
